Screening data (PubChem BioAssay)
Six1-Eya2 inh: qHTS Assay for Inhibitors of the Six1/Eya2 Interaction; AID 651725, 2012; 0.56% of 360,000 active; AlphaScreen GST-Six1/His-Eya2 binding, biochemical; stronger effect = lower value; control for the full effect not named in the record; Homeobox protein SIX1 (Homo sapiens) + Protein phosphatase EYA2 (Homo sapiens), …; activity change, % (no concentration beside the values); in the data active = activity change below about -65%; inconclusive = about -30% to -65%; inactive = above about -30%; further: on the % scale 0 is the no-effect control and ±100 the full control effect; compound concentration not given in the record
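Compounds are tested against tagged Six1 and Eya2 proteins bridged by glutathione donor and nickel acceptor beads; after a one-hour incubation at 37 °C without light, AlphaScreen emission is recorded.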
D2 PAM: Beta-Arrestin HTS for Positive Allosteric Modulators of the Human D2 Dopamine Receptor: Potentiators. D(2) dopamine receptor (Homo sapiens), P14416. DiscoveRx D2 beta-arrestin cells, luminescence, 90 min; 100% = 57 uM dopamine signal. potentiation, % (concentration not given with the values). 0.23% of 360,000 active. AID 624464, 2012; active = potentiation of 50% or more; inconclusive = 30% to 50%; inactive = 30% or less;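 further: compound concentration not given in the record; tested on top of an EC20 dose of dopamine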
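PathHunter beta-arrestin assay in DiscoveRx D2 cells. Compounds were added with an EC20 of dopamine (50 nM final) for 90 min at 37 deg C. Luminescence was read 1 h after detection reagent, with 57 uM dopamine as the EC100 control.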
PINK1 modulator: A Quantitative High throughput Screen to Identify Chemical Modulators of PINK1 Expression; PINK1 immunofluorescence, high-content cytometry, 24 h; Potency, µM (top dose mostly 76.6 µM), without a hit: at the highest dose activation (PINK1 increase), hits mostly activators; 0.2% of 410,000 active; AID 624263, 2012; active = well fitted activation curve with a large enough effect; inconclusive = small, poorly fitted or top-dose-only effect; inactive = flat fitted curve, though single readings scatter; cell line not stated here;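 further: potency means the concentration at half of the fitted maximal effect; % of control where 0% means no effect; nearly all actives have a fitted effect of over 65% in size; a mitochondrial uncoupler was the plate control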
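Fluorescence from anti-PINK1 antibody, together with nuclear and cell stains, was scanned on a laser-scanning cytometer. Before staining, stable-line cells were incubated 24 hours with compounds at 5 concentrations; primary antibody 12 h at 10 degrees C.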
TRPML1 ag: qHTS for Agonists of the Human Mucolipin Transient Receptor Potential 1 (TRPML1) | Mucolipin-1 (Homo sapiens), Q9GZU1 | TRPML1-expressing cells, Ca2+ dye fluorescence, FDSS; host cell line not named in the record; reference of the full effect not given here | activation, % (no concentration beside the values) | 0.12% of 410,000 active | AID 624414, 2012; in the data active = activation above about 50%; inconclusive = about 30% to 50%; inactive = below about 30%; further: 0% is about no effect; the text of the record puts the active cut at 80%
Target sequence (Q9GZU1 whole entry, looked up): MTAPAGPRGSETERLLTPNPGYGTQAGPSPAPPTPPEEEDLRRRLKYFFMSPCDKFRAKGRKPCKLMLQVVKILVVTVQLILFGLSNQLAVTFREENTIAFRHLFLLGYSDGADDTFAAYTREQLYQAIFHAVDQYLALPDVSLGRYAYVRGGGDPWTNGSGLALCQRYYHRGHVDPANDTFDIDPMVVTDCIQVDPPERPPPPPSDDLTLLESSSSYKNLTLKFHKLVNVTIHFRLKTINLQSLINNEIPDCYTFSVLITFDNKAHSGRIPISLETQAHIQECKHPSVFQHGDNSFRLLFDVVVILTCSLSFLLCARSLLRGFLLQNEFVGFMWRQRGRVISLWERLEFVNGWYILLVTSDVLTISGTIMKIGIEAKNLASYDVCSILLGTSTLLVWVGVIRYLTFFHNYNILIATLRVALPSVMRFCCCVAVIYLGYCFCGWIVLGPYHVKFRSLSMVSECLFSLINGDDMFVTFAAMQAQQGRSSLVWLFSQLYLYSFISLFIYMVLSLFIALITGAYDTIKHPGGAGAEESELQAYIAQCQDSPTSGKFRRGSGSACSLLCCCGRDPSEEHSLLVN
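TRPML1-DL cells, Tet-induced overnight (~16 h, 37 degrees C), loaded 45-90 min at room temperature with Ca8 no-wash calcium dye plus quencher. FDSS fluorescence: 10 s baseline, compound pin-transfer, 110 s agonist read, then EC80 54-4 (4uM final) and 110 s antagonist read.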
D2 ag: Beta-Arrestin HTS for Positive Allosteric Modulators of the Human D2 Dopamine Receptor: Agonists. activation, % (test concentration not listed). 0.084% of 360,000 active. AID 624465, 2012. D(2) dopamine receptor (Homo sapiens), P14416. DiscoveRx PathHunter D2 beta-arrestin, luminescence, 90 min; 100% = 57 uM dopamine signal; in the data active = activation above about 40%; inconclusive = about 15% to 40%; inactive = below about 15%; further: compound concentration not given in the record; the text of the record calls up to 30% inactive
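Agonist mode: compounds alone added to overnight-plated D2 PathHunter cells for 90 min at 37 C, with 57 uM final dopamine (EC100) defining full response. Beta-arrestin recruitment detected by chemiluminescent reagent, read after 1 h at ambient temperature.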
CtBP-E1A blk: qHTS Assay for Inhibitors of the CtBP/E1A Interaction | CtBP / adenovirus E1A interaction (AlphaScreen) | AlphaScreen GST-E1A/His-CtBP binding, 1536-well; stronger effect = lower value; control for the full effect not named in the record | activity change, % (no concentration beside the values) | 0.49% of 340,000 active | AID 651724, 2012; in the data active means activity change below about -65%; inconclusive means about -30% to -65%; inactive means above about -30%; further: on the % scale 0 is the no-effect control and ±100 the full control effect; compound concentration not given in the record
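In 5 uL wells, 23 nL compound meets equimolar GST-E1A and His-CtBP (5X stock 125 nM each) for 2 h, 37 °C. Beads (5X, 50 ug/mL) then 1 h, 37 °C, dark.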
The depositor's hits bear a star; . = not tested or not shown; [ ] = remark or other dose.

Assay codes: A = Six1-Eya2 inh; B = D2 PAM; C = PINK1 modulator; D = TRPML1 ag; E = D2 ag; F = CtBP-E1A blk
mol: Cc1ccc(N2CC(C(=O)Oc3cccc(N4C(=O)CCC4=O)c3)CC2=O)cc1 (stereo unspecified)
  A = 0 | B = -1 | C = 7.3%[38.3 µM] | D = 0.3 | E = -3.0 | F = 4

mol: N#CCSC1=Nc2ccccc2C2=NC(CCC(=O)N3CCN(c4ccccc4)CC3)C(=O)N12 (stereo unspecified)
  A = -6 | B = 4 | C = 3.6% | D = 0.0 | E = -2.2 | F = -1

mol: COc1ccc(C(=O)NC(=S)Nc2ccc(N3CCN(C(C)=O)CC3)cc2)cc1[N+](=O)[O-]
  A = -14 | B = -10 | C = -0.9% | D = -0.6 | E = -2.9 | F = -14

mol: Cc1nn(CC(=O)Nc2ccc(C#N)cc2)c(C)c1[N+](=O)[O-]
  A = 6 | B = -9 | C = 1.4% | D = -0.5 | E = -1.9 | F = .

mol: CC(C)Sc1nc2c(cnn2-c2ccc(F)cc2)c(=O)[nH]1
  A = 5 | B = -6 | C = 1.0% | D = -0.1 | E = -2.6 | F = -21

mol: Cc1cc(NC(=O)CSc2nc3c(c(=O)n2-c2ccc(Cl)cc2)SCC3)no1
  A = -5 | B = -12 | C = . | D = 0.9 | E = 0.4 | F = 8

mol: CCCCCCCCN1C(=O)[C@H](CC(=O)N2CCN(C(=O)C3CC3)CC2)C[C@@]2(C(=O)OCC)CCCC=C12
  A = 11 | B = . | C = 3.8% | D = -0.7 | E = . | F = 20

mol: CN(Cc1ccccc1Cl)C(=O)CNC(=O)C12CC3CC(CC(C3)C1)C2
  A = 7 | B = -1 | C = -0.8% | D = 0.6 | E = -4.3 | F = -4

mol: Clc1ccc2c(c1)C(c1cccs1)=NNC(c1cccnc1)=N2
  A = -12 | B = -6 | C = -3.0% | D = -0.7 | E = -1.0 | F = -7

mol: COC(=O)c1ccc(C)c(NC(=O)CCSc2ccc(C)cc2)c1
  A = 10 | B = -14 | C = 1.5% | D = 1.2 | E = 3.4 | F = -6

mol: O=C(Nc1ccnn1C1CCN(C2CCCC2)CC1)c1ccccc1
  A = 2 | B = -2 | C = 1.9% | D = 0.7 | E = -2.4 | F = 7

mol: O=C(CCc1ccccc1)Nc1cc(S(=O)(=O)N2CCOCC2)ccc1N1CCCC1
  A = 10 | B = -11 | C = -0.5% | D = 0.4 | E = 0.5 | F = -18

mol: COC(=O)[C@H](Cc1ccccc1)NC(=O)N1Cc2ccccc2C[C@H]1C(=O)OC
  A = 14 | B = -6 | C = -0.1% | D = 1.7 | E = -2.1 | F = .

mol: O=C(Nc1nnc(COc2ccccc2)s1)c1ccco1
  A = -2 | B = -12 | C = -0.9% | D = 0.7 | E = -1.8 | F = 2

mol: CCOC(=O)[C@@H]1[C@H]2COc3cc(OC)ccc3[C@@H]2N2C(=O)N(c3cccc(Cl)c3)C(=O)[C@]12C
  A = -3 | B = -45 | C = -0.6% | D = -1.2 | E = -1.6 | F = 4

mol: CN1c2ccccc2C2(C)CCCC3=Cc4cccc([N+](=O)[O-])c4OC312 (stereo unspecified)
  A = 4 | B = 6 | C = 7.8% | D = 5.3 | E = -1.6 | F = -11

mol: O=C(CCC1CCCCC1)NCc1cccnc1
  A = 0 | B = -3 | C = 0.1% | D = 0.4 | E = -1.7 | F = 3

Structures from the list above that have four or more nitrogen atoms (7):
Assay codes: A = Six1-Eya2 inh; B = D2 PAM; C = PINK1 modulator; D = TRPML1 ag; E = D2 ag; F = CtBP-E1A blk
mol: N#CCSC1=Nc2ccccc2C2=NC(CCC(=O)N3CCN(c4ccccc4)CC3)C(=O)N12 (stereo unspecified)
  A = -6 | B = 4 | C = 3.6% | D = 0.0 | E = -2.2 | F = -1

mol: COc1ccc(C(=O)NC(=S)Nc2ccc(N3CCN(C(C)=O)CC3)cc2)cc1[N+](=O)[O-]
  A = -14 | B = -10 | C = -0.9% | D = -0.6 | E = -2.9 | F = -14

mol: Cc1nn(CC(=O)Nc2ccc(C#N)cc2)c(C)c1[N+](=O)[O-]
  A = 6 | B = -9 | C = 1.4% | D = -0.5 | E = -1.9 | F = .

mol: CC(C)Sc1nc2c(cnn2-c2ccc(F)cc2)c(=O)[nH]1
  A = 5 | B = -6 | C = 1.0% | D = -0.1 | E = -2.6 | F = -21

mol: Cc1cc(NC(=O)CSc2nc3c(c(=O)n2-c2ccc(Cl)cc2)SCC3)no1
  A = -5 | B = -12 | C = . | D = 0.9 | E = 0.4 | F = 8

mol: Clc1ccc2c(c1)C(c1cccs1)=NNC(c1cccnc1)=N2
  A = -12 | B = -6 | C = -3.0% | D = -0.7 | E = -1.0 | F = -7

mol: O=C(Nc1ccnn1C1CCN(C2CCCC2)CC1)c1ccccc1
  A = 2 | B = -2 | C = 1.9% | D = 0.7 | E = -2.4 | F = 7

Ordered by value in Six1-Eya2 inh (highest first): three from the list above
SMILES | Six1-Eya2 inh
CCCCCCCCN1C(=O)[C@H](CC(=O)N2CCN(C(=O)C3CC3)CC2)C[C@@]2(C(=O)OCC)CCCC=C12 | 11
Cc1ccc(N2CC(C(=O)Oc3cccc(N4C(=O)CCC4=O)c3)CC2=O)cc1 (stereo unspecified) | 0
N#CCSC1=Nc2ccccc2C2=NC(CCC(=O)N3CCN(c4ccccc4)CC3)C(=O)N12 (stereo unspecified) | -6

Outcome played no part in choosing rows; any-hit rate near 1.3%.
